Screening results as filed in PubChem BioAssay.
CSC inhib = cancer stem cell inhibition | inhibition, % at 7.5 µM | cancer stem cell-like cells viability, luminescence | actives 1.1% (n = 300,000) | AID 2717;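 active = mean at 75% or more and at least half the replicates too; tested in HMLE shEcad cells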;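 also: 0% = median of negative and 100% = median of positive control wells; the first replicate is given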
Rce1 inh = yeast Ras-converting enzyme inhibition | AID 2563 | yeast membranes, quenched prenylated peptide cleavage fluorescence | Q03530 | calls only | actives 0.27% (n = 290,000);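 active = fall in fluorescence gain of 50% or more versus controls, with final raw signal at or below 3038400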;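 also: plate controls were neutral control wells for no effect and wells lacking membranes for full effect; tested at 10 µM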
UUG fidelity = yeast start codon fidelity modulation. S. cerevisiae UUG-firefly luciferase reporter, luminescence/redox ratio. actives 0.13% (n = 350,000). activity score, % at 18.7 µM;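 active = replicate mean at a twofold rise or more, about +100% in these data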;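 also: firefly luciferase made from a UUG start codon reports start codon fidelity; reporter light over untreated wells divided by growth signal over untreated wells; some hits fall short of that in this replicate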
PABP FP inh = PABP-poly(A) binding inhibition; P11940; PABP-poly(A) RNA binding, fluorescence polarization; inhibition, % at 35 µM; actives 1% (n = 290,000); AID 2014;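 active = 50% or more with normal probe brightness, or confirmed in later tests; about a fifth of its hits are not listed in these tables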;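 also: calls also rest on retests at 20 µM and on dose response follow-up; controls were probe without protein and protein plus probe with vehicle; some compounds called inactive have numbers as strong as hits; many hits fall short of the cut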
Target sequence (P11940 whole entry, looked up): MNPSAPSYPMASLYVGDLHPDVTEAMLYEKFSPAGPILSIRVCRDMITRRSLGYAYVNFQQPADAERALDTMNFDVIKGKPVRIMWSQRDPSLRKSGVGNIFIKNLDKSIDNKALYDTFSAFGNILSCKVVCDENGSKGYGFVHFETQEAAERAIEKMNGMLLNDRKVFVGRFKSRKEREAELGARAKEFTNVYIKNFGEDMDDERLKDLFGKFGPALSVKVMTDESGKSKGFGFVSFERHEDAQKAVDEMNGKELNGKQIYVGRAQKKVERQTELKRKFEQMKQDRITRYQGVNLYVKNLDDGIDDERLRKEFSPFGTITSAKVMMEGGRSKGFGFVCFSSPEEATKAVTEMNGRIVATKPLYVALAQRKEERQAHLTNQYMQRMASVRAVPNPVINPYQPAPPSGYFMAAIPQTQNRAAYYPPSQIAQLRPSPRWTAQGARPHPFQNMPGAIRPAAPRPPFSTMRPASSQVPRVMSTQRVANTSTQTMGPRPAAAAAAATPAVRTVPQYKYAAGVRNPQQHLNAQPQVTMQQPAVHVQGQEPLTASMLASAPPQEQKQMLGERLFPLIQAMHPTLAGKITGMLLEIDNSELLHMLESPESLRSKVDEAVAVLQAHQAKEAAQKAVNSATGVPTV
eIF4H inh = inhibitors of RNA binding by human eIF4H; Q15056; eIF4H fluorescence polarization binding assay; inhibition, % at 35 µM; actives 0.94% (n = 290,000); AID 2012;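 active = 50% or more with normal probe brightness, or confirmed in later tests; about a fifth of its hits are not listed in these tables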;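 also: calls also rest on retests at 20 µM and on dose response follow-up; 0% = protein and probe with vehicle and 100% = probe without protein; strong numbers were not always called active; many hits fall short of the cut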
MT1-MMP act inh = inhibitors of human MT1-MMP activation; P50281; HT1080 RFP-PRO-GFP cells, GFP/RFP ratio fluorescence, overnight; percent of plate control window, DMSO zero; GFP/RFP ratio change, % at 20 µM; actives 0.061% (n = 360,000); AID 651647;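 active = GFP/RFP ratio change of at least 30% with cell ATP level not reduced by more than half and red fluorescence within 50% of control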; also: strong numbers were not always called active
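Assay system: HT1080 cells carrying an RFP-PRO-GFP reporter | Dosing: Single dose of 20 µM compound, 1% DMSO final | Incubation: Cells overnight before dosing, compound overnight, 37 °C, 5% CO2 | Evaluation: GFP/RFP fluorescence ratio | Control set: DMSO and RFP-L50D-GFP cell wells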
Env fusion inh = blocks HIV Env-driven cell-cell fusion; actives 1.1% (n = 360,000); HeLa-JRFL Env/CEM21 cell fusion, luciferase; inhibition, % at 12.3 µM; AID 651610;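 active = mean replicate inhibition score of at least 50 and every replicate individually at or above 50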;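 also: 0% = plate neutral controls and 100% = maraviroc near 300 nM; one replicate is shown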
MT1-MMP act inh RFP = further read-out of MT1-MMP act inh, marked with its call; RFP signal change, %; measured here: RFP expression control read;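 0 = vehicle wells; hits needed this value within 50% of zero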
* = called active by the depositor. An excerpt, so the mix of outcomes need not match the whole.

How did Cc1cccc(N/C(N)=N/c2nc(C)cc(C)n2)c1 do in these assays?
CSC inhib: 2.8; Rce1 inh: inactive; UUG fidelity: -0.9; PABP FP inh: -6.5; eIF4H inh: -8.5; MT1-MMP act inh: -7.9; Env fusion inh: -11.8; MT1-MMP act inh RFP: -3.7

Results for COCC1CCCCN1C(=O)c1cccc(OC2CCN(S(C)(=O)=O)CC2)c1 (stereo not drawn) ?
Rce1 inh: inactive; UUG fidelity: -2.6; PABP FP inh: 2.3; eIF4H inh: -7.3; MT1-MMP act inh: -2.4; Env fusion inh: 1.3; MT1-MMP act inh RFP: -0.8

How did CNS(=O)(=O)c1cccc(C(=O)OCC(=O)c2ccc[nH]2)c1 do in these assays?
CSC inhib: 1.9; UUG fidelity: -15.5; MT1-MMP act inh: -1.8; Env fusion inh: 6.8; MT1-MMP act inh RFP: 1.5

Results for CCCNC(=O)Nc1nccs1 ?
CSC inhib: -8.7; Rce1 inh: inactive; UUG fidelity: 1.8; PABP FP inh: -3.2; eIF4H inh: -7.5; MT1-MMP act inh: -2.7; Env fusion inh: -33.3; MT1-MMP act inh RFP: 0.7

Results for CCOC(=O)NC(Nc1cc(C)ccn1)(C(F)(F)F)C(F)(F)F ?
CSC inhib: -6.2; Rce1 inh: inactive; UUG fidelity: -4.8; PABP FP inh: 0.2; eIF4H inh: 0.8; MT1-MMP act inh: -1.1; MT1-MMP act inh RFP: -1.2

What do the screens show for `O=C(CSc1nnc(NC(=O)c2ccccc2Cl)s1)Nc1ccc2c(c1)oc1ccccc12`?
CSC inhib: -4.9; Rce1 inh: inactive; PABP FP inh: 3.3; eIF4H inh: -0.3; Env fusion inh: -350.4

Results for CN(C(=O)CS(=O)(=O)c1cn(CC(=O)N2CCCC2)c2ccccc12)c1ccccc1 ?
CSC inhib: -9.6; Rce1 inh: inactive; UUG fidelity: 2.4; PABP FP inh: -4.5; eIF4H inh: -6.6; MT1-MMP act inh: -2.6; Env fusion inh: -24.4; MT1-MMP act inh RFP: 4.8

What do the screens show for `O=C(c1ccco1)N1CCCN(Cc2cn[nH]c2-c2ccc(-c3ccccc3)cc2)CC1`?
CSC inhib: -3.9; Rce1 inh: inactive; PABP FP inh: -10.5; eIF4H inh: -3.1; MT1-MMP act inh: 1.3; Env fusion inh: -21.2; MT1-MMP act inh RFP: -5.3

Results for O=C(CSc1nnc2ccc(-c3ccccn3)nn12)Nc1ccc(F)cc1F ?
CSC inhib: -6.0; Rce1 inh: inactive; MT1-MMP act inh: -1.4; Env fusion inh: -8.7; MT1-MMP act inh RFP: -1.4

What do the screens show for `Cc1ccc(S(=O)(=O)NCCCCCC(=O)Nc2c(C)n(C)n(-c3ccccc3)c2=O)cc1`?
CSC inhib: 9.7; Rce1 inh: inactive; UUG fidelity: 4.4; PABP FP inh: 4.6; eIF4H inh: 2.9; MT1-MMP act inh: 1.3; Env fusion inh: 14.9; MT1-MMP act inh RFP: -0.6

How did O=C(NCCc1ccc(Cl)cc1)C1CCN(c2ncccn2)CC1 do in these assays?
CSC inhib: -10.5; Rce1 inh: inactive; PABP FP inh: 2.9; eIF4H inh: -2.8; MT1-MMP act inh: 1.5; Env fusion inh: 4.0; MT1-MMP act inh RFP: -0.4

How did COCc1c(C(=O)N2CCN(Cc3nc4ccccc4s3)CC2)oc2ccccc12 do in these assays?
UUG fidelity: 10.7; MT1-MMP act inh: -2.0; Env fusion inh: -23.4; MT1-MMP act inh RFP: -0.9

Results for CC(C)n1ncc2c(C(=O)O)cc(C3CC3)nc21 ?
CSC inhib: -4.8; Rce1 inh: inactive; PABP FP inh: 6.3; eIF4H inh: 0.6; MT1-MMP act inh: 2.7; Env fusion inh: 4.4; MT1-MMP act inh RFP: 1.9

Results for COc1cc(C2(c3ccc(O)c(OC)c3)C(=O)N(C)c3ccc(C)cc32)ccc1O ?
Rce1 inh: inactive; UUG fidelity: -4.5; MT1-MMP act inh: -0.2; Env fusion inh: -6.8; MT1-MMP act inh RFP: 4.1

Results for Cc1cc2oc(=O)cc(CSc3nc(N)cc(N)n3)c2cc1C(C)C ?
CSC inhib: -10.2; Rce1 inh: inactive; PABP FP inh: -1.8; eIF4H inh: -2.9; MT1-MMP act inh: 1.6; MT1-MMP act inh RFP: -0.6

How did Cn1c(SCC(=O)Nc2cccnc2Cl)nnc1-c1ccco1 do in these assays?
CSC inhib: -9.3; UUG fidelity: -6.0; MT1-MMP act inh: 2.4; Env fusion inh: 9.2; MT1-MMP act inh RFP: -0.7

What do the screens show for `OCc1ccc(-c2ccccc2)c(-c2ccccc2)c1`?
CSC inhib: -8.1; Rce1 inh: inactive; UUG fidelity: -5.5; MT1-MMP act inh: 1.5; Env fusion inh: 2.9; MT1-MMP act inh RFP: -1.9

Results for Cc1ccc(S(=O)(=O)Nc2ccncc2)c(C)c1 ?
CSC inhib: 0.1; Rce1 inh: inactive; UUG fidelity: -5.5; PABP FP inh: 8.7; eIF4H inh: 2.1; MT1-MMP act inh: -3.2; Env fusion inh: -4.4; MT1-MMP act inh RFP: 1.8

How did COc1ccc(N2CCN(CCNC(=O)Nc3cccc(C)c3C)CC2)cc1 do in these assays?
CSC inhib: -4.7; Rce1 inh: inactive; UUG fidelity: -7.1; PABP FP inh: -12.8; eIF4H inh: -0.3; Env fusion inh: 10.3

Results for CCOc1ccccc1NC(=O)c1cc(=O)[nH]c2ccc(S(=O)(=O)N3CCOCC3)cc12 ?
CSC inhib: -15.8; UUG fidelity: -4.7; MT1-MMP act inh: -4.8; Env fusion inh: 3.6; MT1-MMP act inh RFP: 1.2

What do the screens show for `COc1ccc(C(=O)NCC2(c3ccccc3)CCOCC2)cc1`?
CSC inhib: 5.2; Rce1 inh: inactive; UUG fidelity: -18.8; PABP FP inh: -10.6; eIF4H inh: -1.4; MT1-MMP act inh: -2.6; Env fusion inh: -15.8; MT1-MMP act inh RFP: -3.2

How did Cc1ccccc1OCC(=O)N/N=C/c1cccc2cccnc12 do in these assays?
CSC inhib: -11.8; UUG fidelity: -19.9; PABP FP inh: -4.6; eIF4H inh: -5.9; MT1-MMP act inh: 5.7; Env fusion inh: 8.3; MT1-MMP act inh RFP: 2.8

How did Cn1c(SCC(=O)NCC2CCCO2)nc2c([nH]c3ccccc32)c1=O (stereo not drawn) do in these assays?
CSC inhib: -5.9; Rce1 inh: inactive; UUG fidelity: -5.9; PABP FP inh: 3.8; eIF4H inh: -2.3; Env fusion inh: -19.2

Results for CCCOc1ccc(C2C(C(=O)c3ccc(C)o3)=C(O)C(=O)N2Cc2ccco2)cc1OCC (stereo not drawn) ?
CSC inhib: -12.4; Rce1 inh: inactive; UUG fidelity: -3.9; PABP FP inh: 6.2; eIF4H inh: -8.1; MT1-MMP act inh: 0.9; Env fusion inh: 23.0; MT1-MMP act inh RFP: -0.2

Results for COc1ccccc1CNC(=O)c1cc(S(=O)(=O)N2CCCC2)cn1C ?
Rce1 inh: inactive; UUG fidelity: -7.3; PABP FP inh: -18.7; eIF4H inh: -3.1; MT1-MMP act inh: -0.7; Env fusion inh: 6.0; MT1-MMP act inh RFP: -0.2

How did O=c1c(Cl)nc2cc(Cl)ccc2n1CCNc1ncc(C(F)(F)F)cc1Cl do in these assays?
CSC inhib: -1.4; Rce1 inh: inactive; PABP FP inh: -6.4; eIF4H inh: -16.1

Results for CCN(CC)C(=O)C1=C(C)N(CCC2=CCCCC2)C(=O)C(CC(=O)NCCN2CCOCC2)C1 (stereo not drawn) ?
UUG fidelity: 8.3; MT1-MMP act inh: -2.7; Env fusion inh: -38.7; MT1-MMP act inh RFP: 4.7

How did CN1OC[C@@H]2CN(C(=S)NCCc3ccccc3)[C@H](c3ccc(N4CCCCC4)cc3)C[C@@H]21 do in these assays?
UUG fidelity: -14.9; MT1-MMP act inh: 1.1; Env fusion inh: 1.5; MT1-MMP act inh RFP: -7.1

How did Cc1cccc(C)c1NC(=S)Nc1ccccc1C(=O)NCc1ccco1 do in these assays?
CSC inhib: -11.1; Rce1 inh: inactive; UUG fidelity: -13.9; PABP FP inh: -4.7; eIF4H inh: 5.7; MT1-MMP act inh: 1.1; Env fusion inh: 11.7; MT1-MMP act inh RFP: -1.1

What do the screens show for `Cc1nnc(NC(=O)c2ccccc2Oc2ccccc2)s1`?
Rce1 inh: inactive; UUG fidelity: -17.1; PABP FP inh: 14.4; eIF4H inh: 11.8; MT1-MMP act inh: 1.4; Env fusion inh: -3.4; MT1-MMP act inh RFP: 5.0

The last 3 compounds of the section above open the next one.
How did CN1OC[C@@H]2CN(C(=S)NCCc3ccccc3)[C@H](c3ccc(N4CCCCC4)cc3)C[C@@H]21 do in these assays?
UUG fidelity: -14.9; MT1-MMP act inh: 1.1; Env fusion inh: 1.5; MT1-MMP act inh RFP: -7.1

How did Cc1cccc(C)c1NC(=S)Nc1ccccc1C(=O)NCc1ccco1 do in these assays?
CSC inhib: -11.1; Rce1 inh: inactive; UUG fidelity: -13.9; PABP FP inh: -4.7; eIF4H inh: 5.7; MT1-MMP act inh: 1.1; Env fusion inh: 11.7; MT1-MMP act inh RFP: -1.1

What do the screens show for `Cc1nnc(NC(=O)c2ccccc2Oc2ccccc2)s1`?
Rce1 inh: inactive; UUG fidelity: -17.1; PABP FP inh: 14.4; eIF4H inh: 11.8; MT1-MMP act inh: 1.4; Env fusion inh: -3.4; MT1-MMP act inh RFP: 5.0

Results for Cc1ccc2oc(=O)c3cc(C(=O)NCCCN4CCCC(C)C4)sc3c2c1 (stereo not drawn) ?
CSC inhib: 16.4; Rce1 inh: inactive; UUG fidelity: -21.0; PABP FP inh: -6.0; eIF4H inh: -5.3; MT1-MMP act inh: 0.2; Env fusion inh: 4.7; MT1-MMP act inh RFP: 0.3

How did O=C(NCc1cccnc1)c1ccc(Cn2cc(C(F)(F)F)ccc2=O)cc1 do in these assays?
CSC inhib: -1.7; Rce1 inh: inactive; PABP FP inh: -10.9; eIF4H inh: 3.4; MT1-MMP act inh: 3.0; Env fusion inh: -9.8; MT1-MMP act inh RFP: 2.5

What do the screens show for `O=C(/C=C/c1ccc(Cl)cc1Cl)NCCN1CCOCC1`?
CSC inhib: -21.8; Rce1 inh: inactive; UUG fidelity: -6.5; PABP FP inh: -4.6; eIF4H inh: -3.8; MT1-MMP act inh: 4.1; MT1-MMP act inh RFP: 5.3

Results for CCCn1c(C)nc2cc(Cl)c(N3CCN(c4nc(-c5ccc(C)cc5)cs4)CC3)cc21 ?
CSC inhib: 44.7; Rce1 inh: inactive; UUG fidelity: 3.1; PABP FP inh: 0.4; eIF4H inh: -7.8; MT1-MMP act inh: -2.0; Env fusion inh: 32.2; MT1-MMP act inh RFP: -11.0

What do the screens show for `COc1cc2c(cc1OC)C1Cc3ccc(OC)c(OC)c3CN1CC2` (stereo not drawn)?
CSC inhib: -2.9; Rce1 inh: inactive; UUG fidelity: -5.0; PABP FP inh: 1.7; eIF4H inh: 2.9; MT1-MMP act inh: -5.0; MT1-MMP act inh RFP: -6.3

Results for O=C(NC(=S)NCc1ccccc1)C1CCCCC1 ?
CSC inhib: 0.9; Rce1 inh: inactive; UUG fidelity: -12.0; PABP FP inh: -1.8; eIF4H inh: -0.5; MT1-MMP act inh: -1.3; MT1-MMP act inh RFP: -2.5

How did Cc1cccc(-c2noc(CN(C)C(=O)c3ccoc3C)n2)c1 do in these assays?
CSC inhib: -0.9; Rce1 inh: inactive; UUG fidelity: -0.7; PABP FP inh: -5.7; eIF4H inh: -14.5; MT1-MMP act inh: 5.1; Env fusion inh: -8.6; MT1-MMP act inh RFP: -6.0

Results for Cc1ccc(S(=O)(=O)N2CCOCC2)cc1NC(=O)COC(=O)c1cc[n+]([O-])cc1 ?
CSC inhib: 5.8; UUG fidelity: 7.9; MT1-MMP act inh: 2.9; MT1-MMP act inh RFP: 4.7
